VDR inh: blocks the human vitamin D receptor; AID 504847; VDR-SRC2-3 peptide fluorescence polarization, 2 h; P11473; 400,000 compounds, 0.93% hits; Potency, µM, for inactives: max response, negative = inhibition, most hits filed as inhibitors; active = well fitted inhibition curve with a large enough effect; inconclusive = small, poorly fitted or top-dose-only effect, or another doubt; inactive = no such curve, though single readings can be large or run the other way; note: series mostly up to about 120 µM
Target sequence (P11473 whole entry, looked up): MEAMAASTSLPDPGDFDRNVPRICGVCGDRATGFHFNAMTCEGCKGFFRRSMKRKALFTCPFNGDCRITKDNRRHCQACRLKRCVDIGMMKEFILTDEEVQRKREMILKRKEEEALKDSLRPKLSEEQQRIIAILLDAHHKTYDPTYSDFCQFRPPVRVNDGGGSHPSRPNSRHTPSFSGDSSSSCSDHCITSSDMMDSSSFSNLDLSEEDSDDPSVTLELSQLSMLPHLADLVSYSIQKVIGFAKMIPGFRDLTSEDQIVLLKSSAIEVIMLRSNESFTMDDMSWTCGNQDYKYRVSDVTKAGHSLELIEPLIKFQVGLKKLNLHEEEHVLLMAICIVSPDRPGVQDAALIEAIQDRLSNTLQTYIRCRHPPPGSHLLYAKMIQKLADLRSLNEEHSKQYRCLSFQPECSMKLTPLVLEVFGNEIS
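Signal is fluorescence polarization, reporting how far test compounds block the interaction of VDR with the SRC2-3 coregulator peptide after a 2 h room-temperature incubation.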
An asterisk follows results filed as active; [ ] = another dose, or the depositor's remark. % is set by controls: 0 for no effect and ±100 for the full control effect; potency is the fitted concentration of half-maximal effect. Only part of the results is shown; count on the stated rates, not on these rows.

For Cc1cc(C)c(S(=O)(=O)Nc2ccc(-c3ccc(N4CCCCCC4)nn3)cc2)cc1C the results were VDR inh 1.2%.
CCCOc1ccc(C2=NNC(=O)CC2)cc1 was read as VDR inh -16.2%.
CC(C)(C)c1ccc(C(=O)N2CCN(CCNC(=O)C(=O)NCc3ccc(Cl)cc3)CC2)cc1 was read as VDR inh -9.0%.
Screening COc1cc(OC)c(OC)cc1NC(=O)CC1COc2ccccc2O1 (configuration not stated) returned VDR inh -2.7%.
`CC(=O)c1cc(-c2ccccc2)n(CCC(=O)NC2CCCCCCC2)c1C` gave VDR inh -26.0%.
`O=C(Nc1cccc(Cl)c1)N1CCCC1` gave VDR inh 17.8µM*.
For COC(=O)c1sc(NC(=S)NC(=O)c2cccc(Br)c2)nc1C the results were VDR inh 0.0%.
CC(C)(C)c1ccc(-c2cn(-c3ccc(Br)cc3)c3[n+]2CCCS3)cc1 was read as VDR inh -9.5%.
For CS(=O)(=O)NNC(=O)c1sccc1OCc1ncc(C(F)(F)F)cc1Cl the results were VDR inh 16.3%.
`CN(C)c1nc(OCCNC(=O)Nc2ccc(Cl)cc2)nc(N(C)C)n1` gave VDR inh -0.6%.
Screening CN(C)CCNC(=O)COc1cccc2c1OC(C)(C)C2 returned VDR inh -22.6%.
For CCOc1ccc(CC(=O)OCn2nnc3ccccc3c2=O)cc1 the results were VDR inh 1.7%.
`COc1ccc2[nH]c3c4c(ccc3c2c1)C(=O)C=CC4=O` gave VDR inh inconclusive.
`O=C(c1cnn2c(-c3ccccc3)cc(-c3ccccc3)nc12)N1CCN(Cc2ccccc2)CC1` gave VDR inh -28.3%.
For O=C(Nc1cc(Cl)ccc1-n1cncn1)c1ccc(Br)o1 the results were VDR inh 11.7%.
CN(C)CCNC(=O)C(=O)NCC1OCCN1S(=O)(=O)c1ccc2c(c1)OCCO2 (configuration not stated) was read as VDR inh -2.6%.
For CCOCc1ccccc1Nc1ncnc2onc(-c3ccc(Cl)cc3)c12 the results were VDR inh 3.6%.
Screening CC1CCCN(CCCNC(=O)c2nn(C)c3c2CS(=O)(=O)c2ccccc2-3)C1 (configuration not stated) returned VDR inh 5.5%.
`CSc1nc(SCC(=O)NCc2ccco2)c2c3c(sc2n1)COC(C)(C)C3` gave VDR inh -6.4%.
Screening COc1ccc(-c2csc3ncnc(Nc4cc(OC)cc(OC)c4)c23)cc1 returned VDR inh 3.8%.
`Clc1cccc(-c2nc(NCCN3CCOCC3)c3ccccc3n2)c1` gave VDR inh 7.5%.
`O=C(c1cc(COc2c(F)cccc2F)on1)N1CCc2ccccc2C1` gave VDR inh -8.2%.
`COc1cc(OC)c(N(C)C(=O)c2c(C)oc3ncnc(N4CCCCC4)c23)cc1Cl` gave VDR inh 3.5%.
For CCOC(=O)C1CCC(CN(Cc2ccc(Cl)cc2)S(=O)(=O)c2ccc(F)c(C(=O)Nc3cccc(F)c3)c2)CC1 (configuration not stated) the results were VDR inh 18.3%.
`Cc1cc(N=Cc2c(O)n(-c3cccc(C(F)(F)F)c3)c(=O)c3ccccc23)no1` gave VDR inh -7.1%.
Screening C=CCc1cccc(/C=N/NC(=O)CNc2ccccc2OC)c1O returned VDR inh 23.8%.
c1csc(-n2nc3ccccc3n2)c1 was read as VDR inh 10.9%.
`COc1ccc(CCNC(=O)c2cc(C3CC3)nc3c2cnn3C(C)C)cc1OC` gave VDR inh -3.6%.
CC(Oc1ccc(F)cc1)C(=O)Nc1cc(Cl)ccc1-n1cncn1 (configuration not stated) was read as VDR inh -5.9%.
`COc1ccc(-c2csc3ncnc(N4CCN(c5cccc(C)c5C)CC4)c23)cc1` gave VDR inh -11.2%.
CCOC(=O)C1CCCN(S(=O)(=O)c2ccc(OC)cc2)C1 (configuration not stated) was read as VDR inh -7.0%.
COc1cc(OC)c2c(C)cc(=O)oc2c1C(CCN1CCOCC1)c1ccc(N(C)C)cc1 (configuration not stated) was read as VDR inh 1.3%.
`CCOC(=O)CSc1cc(C)c(C#N)c2nc3ccccc3n12` gave VDR inh -22.0%.
Screening CN(C(=O)c1cccc(NC(=O)Cc2ccc(NC(=O)C3CCN(S(=O)(=O)c4cccc([N+](=O)[O-])c4)CC3)cc2)c1)C1CCC1 returned VDR inh 8.3%.
Cc1cc(F)ccc1S(=O)(=O)N1CCCOC1CNC(=O)C(=O)NCc1ccncc1 (configuration not stated) was read as VDR inh 7.2%.
Screening CCc1ccc(CCC(=O)Nc2ccc(C)c(C)c2)o1 returned VDR inh -12.7%.
Cc1cccc(-n2ncc3c(=O)[nH]c(SCC(=O)Nc4cc(C)on4)nc32)c1 was read as VDR inh 3.7%.
For CCOC(=O)CN(C(=O)CSc1nnc(-c2ccncc2)n1CCCOC)c1ccccc1 the results were VDR inh -3.1%.
`O=c1[nH]cnc2c([N+](=O)[O-])cccc12` gave VDR inh 24.3%.
COc1cc(C(=O)Nc2nncs2)cc(OC)c1OC was read as VDR inh -0.2%.
For N#CNC(=Nc1ccc(F)cc1)SCc1ccccc1 the results were VDR inh -20.1%.
Screening CN(CC(=O)NCc1ccccc1)S(=O)(=O)c1cnc[nH]1 returned VDR inh 5.8%.
For COc1ccc(-c2c[n+](CC(=O)N3c4ccccc4Sc4ccccc43)c3n2CCC3)cc1 the results were VDR inh 0.3%.
COc1ccc(C(=O)OCC(=O)NC2CC2)cc1[N+](=O)[O-] was read as VDR inh -8.7%.
Screening CC(C)CC(=O)Nc1ccc(Cl)c(-c2nc3ccccc3[nH]2)c1 returned VDR inh 3.7%.
`C/C=C(\C)c1nnc(NC(=O)OCC)s1` gave VDR inh 1.5%.
Screening COc1ccc(NC(=O)CNC(c2ccccc2)c2ccccc2)cc1 returned VDR inh -0.3%.
`CC(C)(C)C(=O)Nc1ncc(C(F)(F)F)cc1Cl` gave VDR inh -6.2%.
COC(=O)CN1C(=O)C(C)(C)Oc2ccc(C(=O)NC3CC3)cc21 was read as VDR inh -19.9%.
`Cc1nn(C(C)C(=O)NCC2CCCO2)c(=O)c2cc3occc3n12` (configuration not stated) gave VDR inh 14.3%.
`COc1cccc(OC)c1-c1nn2c(-c3ccco3)nnc2s1` gave VDR inh -5.0%.
For O=C(CSc1nnc(C2CCCCC2)n1Cc1ccccc1)NCc1ccco1 the results were VDR inh inconclusive.
`c1ccc2sc(C3CCN(Cc4nnnn4Cc4ccc5c(c4)OCO5)CC3)nc2c1` gave VDR inh 1.5%.
Screening CC(C)n1cc(CN2CCCC(CNS(=O)(=O)c3cccc4cccnc34)C2)cn1 (configuration not stated) returned VDR inh 2.8%.
`O=C(NCc1cccnc1)c1ccccc1-c1ccccc1` gave VDR inh -4.5%.
NC(=O)NC(=O)CSc1cccc(C(F)(F)F)c1 was read as VDR inh -20.8%.
For CCOc1ccc(Cn2nnc(C(=O)NCc3ccccc3)c2N)cc1 the results were VDR inh 18.0%.
`Oc1ccccc1CNCC12CC3CC(CC(C3)C1)C2` gave VDR inh -5.9%.
Screening CC(=O)Nc1cc(C(=O)NCc2ccc(F)cc2)ccc1Sc1ccc(F)cc1 returned VDR inh 15.8%.
NS(=O)(=O)c1ccc(CCNC(=O)c2ccc(Cl)c(S(=O)(=O)NCc3ccco3)c2)cc1 was read as VDR inh -18.3%.
Cc1cccc(NC(=O)C2CC(=O)N(Cc3ccccc3)C2)n1 (configuration not stated) was read as VDR inh -9.4%.
Screening CN(Cc1ccccn1)Cc1nc(-c2ccc(Cl)cc2)no1 returned VDR inh 7.3%.
CSC1=N/C(=C\c2ccc(Cl)cc2)C(=O)N1N(C)C was read as VDR inh -1.2%.
`CCCCC(=O)Nc1ccc(NC(=O)c2ccc3c(c2)OCO3)cc1OC` gave VDR inh -22.0%.
`O=C1N(Cc2cccnc2)C[C@@H]2C[C@@H](c3cccc(C(F)(F)F)c3)N3CCC[C@@]123` gave VDR inh -12.5%.
`CCOC(=O)c1csc(NC(=O)CSc2nnnn2-c2ccc(OC)c(OC)c2)n1` gave VDR inh -6.2%.
`Cc1nn(CC(=O)NCCc2ccccc2Cl)c(=O)c2nn(-c3ccccc3)c(C)c12` gave VDR inh 8.9%.
For O=c1oc(CCCO)cc2ccccc12 the results were VDR inh -7.9%.
COC(=O)c1ccc(N2CCOCC2)c(NC(=O)c2ccco2)c1 was read as VDR inh -6.3%.
Screening O=C(NCc1ccc(F)cc1)Nc1cccc([N+](=O)[O-])c1 returned VDR inh -23.1%.
Screening CCCCN(CC)CCCNC(=O)c1nn(C)c2c1CS(=O)(=O)c1ccccc1-2 returned VDR inh 7.8%.
For C[C@H](CO)N1C[C@H](C)[C@@H](CN(C)S(=O)(=O)c2ccccc2)Oc2c(NC(=O)CCC(F)(F)F)cccc2C1=O the results were VDR inh -16.8%.
Screening c1ccc(C2CC(c3ccccc3)n3c(nc4ccccc43)N2)cc1 (configuration not stated) returned VDR inh -5.7%.
Screening COc1ccc(-c2ccc(-c3noc(-c4cccc(OC)c4)n3)c(OC)n2)cc1 returned VDR inh 8.8%.
CCn1c(SCc2cccc(F)c2)nnc1-c1cccnc1 was read as VDR inh -12.8%.
CCC(C)NC(=O)c1ccc2c(Cl)c3c(nc2c1)CCC3 (configuration not stated) was read as VDR inh 8.1%.
`CCOC(=O)CC(=O)CSc1nc2c(cc1C#N)CCC2` gave VDR inh -0.6%.
`O=C(OCc1csc(-c2ccccc2)n1)c1cccs1` gave VDR inh -9.9%.
`CC(NC(=O)c1cc(F)c(F)cc1Cl)c1ccncc1` (configuration not stated) gave VDR inh -19.0%.
`COc1ccc(Nc2cc(C)nc(-n3nc(C)cc3C)n2)cc1` gave VDR inh -25.9%.

Arranged by length of the SMILES (rising): part of the list above.
CCn1c(SCc2cccc(F)c2)nnc1-c1cccnc1 was read as VDR inh -12.8%.
Cc1cccc(NC(=O)C2CC(=O)N(Cc3ccccc3)C2)n1 (configuration not stated) was read as VDR inh -9.4%.
Screening c1ccc(C2CC(c3ccccc3)n3c(nc4ccccc43)N2)cc1 (configuration not stated) returned VDR inh -5.7%.

More compounds follow:
Screening Nc1ncc(Br)cc1S(=O)(=O)Nc1ccccc1F returned VDR inh -9.1%.
O=C1CC(c2nc3ccccc3n2CCC2CCCCC2)CN1c1ccccc1Cl (configuration not stated) was read as VDR inh 6.0%.
Screening COC(=O)c1cc2ccc(OC)c(OC)c2c(=O)s1 returned VDR inh 15.1%.
For O=C(C/C=N/OCc1c(Cl)cccc1Cl)c1ccccc1 the results were VDR inh 8.3%.
For COc1cccc(N(C(C)=O)c2nc(C)cc(C)c2C#N)c1 the results were VDR inh 0.1%.
CC(=O)Nc1ccc(SCC(Cc2ccccc2)N2CCN(CCc3ccccc3)CCC2=O)cc1 (configuration not stated) was read as VDR inh inconclusive.
COc1ccccc1-c1ccc(SCC(=O)Nc2cc(C)on2)nn1 was read as VDR inh 12.7%.
Screening Cc1nnc(-n2cnc3ccccc32)c2ccccc12 returned VDR inh 21.0%.
Screening O=S(=O)(Nc1nc2n(n1)C(c1ccc(F)cc1)C=C(c1ccccc1)N2)c1ccccc1 (configuration not stated) returned VDR inh 24.1%.
Screening CC(=O)c1ccc(NC(=S)NCCc2cccc(Cl)c2)cc1 returned VDR inh 4.5%.
`C=C(C)CSC1=C(C#N)C(c2ccccc2Cl)CC(=O)N1` (configuration not stated) gave VDR inh inconclusive.
Screening COCCCNCCCCOc1ccc(Br)cc1Cl returned VDR inh 0.1%.
Screening NC(N)=NS(=O)(=O)c1ccc(N/C=C/C(=O)c2ccc(Cl)c(Cl)c2)cc1 returned VDR inh 31.1%[activator].
`COc1ccc(NC(=O)CC2C(=O)N(c3ccccc3)C(=O)N2CCc2sccc2C)cc1` (configuration not stated) gave VDR inh inconclusive.
Screening COc1ccc(Br)cc1CNC(=O)c1cc(=O)[nH]c2ccc(S(=O)(=O)N3CCCCC3C)cc12 (configuration not stated) returned VDR inh 18.8%.
`COc1cc(CC(CC(=O)O)CC(C)OCc2ccccc2)cc(OC)c1` (configuration not stated) gave VDR inh 4.1%.
Screening CCC(C)C(=O)Nc1nnc(SCC(=O)Nc2ccc(F)cc2)s1 (configuration not stated) returned VDR inh -6.1%.
Cc1cc(C)n(-c2ccc(C(=O)OCc3nnc(-c4ccccc4)o3)cc2)n1 was read as VDR inh -11.1%.
C=CCN(Cc1nc(-c2ccccc2)no1)C(=O)c1ccco1 was read as VDR inh -23.4%.
`CCOc1ccc(N2CC(c3nc4ccccc4n3CCC3CCCCC3)CC2=O)cc1` (configuration not stated) gave VDR inh 13.4%.

Entries shown so far that contain two or more sulfur atoms:
For COC(=O)c1sc(NC(=S)NC(=O)c2cccc(Br)c2)nc1C the results were VDR inh 0.0%.
For CS(=O)(=O)NNC(=O)c1sccc1OCc1ncc(C(F)(F)F)cc1Cl the results were VDR inh 16.3%.
`CSc1nc(SCC(=O)NCc2ccco2)c2c3c(sc2n1)COC(C)(C)C3` gave VDR inh -6.4%.
NS(=O)(=O)c1ccc(CCNC(=O)c2ccc(Cl)c(S(=O)(=O)NCc3ccco3)c2)cc1 was read as VDR inh -18.3%.
`CCOC(=O)c1csc(NC(=O)CSc2nnnn2-c2ccc(OC)c(OC)c2)n1` gave VDR inh -6.2%.
`O=C(OCc1csc(-c2ccccc2)n1)c1cccs1` gave VDR inh -9.9%.
Screening CCC(C)C(=O)Nc1nnc(SCC(=O)Nc2ccc(F)cc2)s1 (configuration not stated) returned VDR inh -6.1%.

(more compounds)
`O=c1oc2ccc(C#CC3(O)CCCCC3)cc2cc1-n1cc(-c2ccsc2)nn1` gave VDR inh -11.2%.
Screening CCc1ccccc1NC(=O)CN(c1cccc(C)c1C)S(C)(=O)=O returned VDR inh -2.8%.
Screening COc1ccc2nc(N3CCC(C)CC3)c(C#N)cc2c1 returned VDR inh 7.0%.
CCOc1ccc(N(CC(=O)NCCOc2ccccc2OC)S(=O)(=O)c2ccccc2)cc1 was read as VDR inh -2.9%.
For CCC(Cc1ccccc1)NC(=O)/C=C/c1ccco1 (configuration not stated) the results were VDR inh 10.6%.
`CCOCCCNC(=O)CNC(=S)N(Cc1ccccc1F)C1CCCCC1` gave VDR inh 1.3%.
Screening COC(=O)c1ccc(/C=N/OCC(=O)Nc2cc(F)ccc2F)cc1 returned VDR inh 14.3%.

Source: PubChem BioAssay (National Center for Advancing Translational Sciences (NCATS))
